gsp antagonist: qHTS for Antagonists of gsp, the Etiologic Mutation Responsible for Fibrous Dysplasia/McCune-Albright Syndrome: qHTS; Potency, µM (series often up to 76.9 µM), for inactives: at the top dose activity change, negative = inhibition, hits mostly inhibitors; gsp-mutant cells, cAMP HTRF, 30 min; control for the full effect not named in the record; 0.4% of 340,000 active; AID 624288, 2012; active = falling curve of any shape with a large fitted effect; inconclusive = falling curve, mostly with a smaller effect; inactive = flat or rising curve; cell line not stated here;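 also: intracellular cAMP measured with PDE inhibitor Ro 20-1724 present during compound exposure; potency is read from the fitted curve at half-maximal effect; % is scaled to controls: 0 for no effect and ±100 for the full control effect; nearly all actives have a fitted effect of over 65% in size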
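HTRF cAMP measurement after 30 min RT detection following 30 min, 37C compound treatment alongside […] (added as 300 uM solution) in G418-selected cells seeded at 2000/well and grown 16–24 h.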
Menin MLL FP FL: qHTS Assay for Inhibitors Targeting the Menin-MLL Interaction in MLL Related Leukemias: Competition With Fluorescein Labeled MLL-derived Peptide. FP activity change, % at 61.4 µM. 290,000 tested, under 10 active. Fluorescence polarization, fluorescein-MLL peptide displacement from menin; inconclusive = falling polarisation curve, or a change in total fluorescence; inactive = total fluorescence flat and polarisation flat or rising; no compound was filed as active; the % refers to the polarisation; negative = inhibition;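 also: % of control where 0% means no effect; inhibitors lower the polarisation; unlabelled MLL peptide was the positive control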
gsp agonist: qHTS for Agonist of gsp, the Etiologic Mutation Responsible for Fibrous Dysplasia/McCune-Albright Syndrome: qHTS; gsp mutant cells, cAMP HTRF, 30 min; control for the full effect not named in the record; Potency, µM (top dose mostly 76.9 µM), for the others: at the top dose activation (cAMP increase), usual class: activators; 0.13% of 340,000 active; active = well fitted activation curve with a large enough effect; inconclusive = small, poorly fitted or top-dose-only effect, or another doubt; inactive = no such curve, though single readings can be large or run the other way; cell line not stated here;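 also: phosphodiesterase inhibitor Ro 20-1724 added with compounds to block cAMP breakdown; potency is read from the fitted curve at half-maximal effect; nearly all actives have a fitted effect of over 60% in size; about a fifth of the inactives were tested at one dose only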
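Cells in DMEM/10% FBS with G418 were pretreated with compounds in DMSO plus […] (300 uM stock) for 30 min at 37C. cAMP was measured by HTRF (cAMP-d2 plus anti-cAMP antibody-K) after 30 min at room temperature.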
ClpP mod: qHTS Assay for Activators of ClpP | Potency, µM (titrated, usually from 57.5 µM), inactives show top-dose activity change, negative = active | AID 651965, 2013 | ATP-dependent Clp protease proteolytic subunit (Bacillus subtilis (strain 168)), P80244 | 1.9% of 340,000 active | purified B. subtilis ClpP, FRET peptide cleavage, 20 min; active = well fitted falling curve with a large enough effect; inconclusive = small, poorly fitted or top-dose-only effect; inactive = no such curve, though single readings can be large or run the other way; also: potency is read from the fitted curve at half-maximal effect; the source files actives as falling curves though it sought activators and does not explain the sign; nearly all actives have a fitted effect of over 65% in size; many hits overshoot -100%
Target sequence (P80244 whole entry, looked up): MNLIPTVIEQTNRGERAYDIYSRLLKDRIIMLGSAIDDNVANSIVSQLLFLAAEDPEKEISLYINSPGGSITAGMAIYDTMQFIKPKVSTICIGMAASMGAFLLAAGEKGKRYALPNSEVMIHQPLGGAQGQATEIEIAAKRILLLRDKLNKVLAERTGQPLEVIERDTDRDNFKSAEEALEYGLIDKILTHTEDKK
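ClpP 10 microg/mL final, pH 8 Tris/KCl buffer with BSA, glycerol, Tween-20; compound pinned in; FRET-FV substrate; RT 20 min; Ex320/Em430; ΔFRET vs ADEP 5.8 microM, DMSO, no enzyme.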
PINK1 expr mod: A Quantitative High throughput Screen to Identify Chemical Modulators of PINK1 Expression. Potency, µM (top dose mostly 76.6 µM), without a hit: at the highest dose activation (PINK1 increase), hits mostly activators. 0.2% of 410,000 active. PINK1 immunofluorescence, high-content cytometry, 24 h; active = well fitted activation curve with a large enough effect; inconclusive = small, poorly fitted or top-dose-only effect; inactive = flat fitted curve, though single readings scatter; cell line not stated here;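 also: potency is read from the fitted curve at half-maximal effect; % of control where 0% means no effect; nearly all actives have a fitted effect of over 65% in size; a mitochondrial uncoupler was the plate control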
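Readout is PINK1 immunofluorescence, quantified alongside mitochondrial, cell and nuclear markers by laser-scanning microplate cytometry. Cells from a stable line were exposed to compound titrations (5 concentrations) for 24 hours, with CCCP controls.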
Sfp inh: qHTS Assay for Inhibitors of Bacillus subtilis Sfp phosphopantetheinyl transferase (PPTase) | Biochemical Sfp PPTase activity, qHTS | AID 1490, 2009 | 3.5% of 310,000 active | 4'-phosphopantetheinyl transferase ffp (Bacillus subtilis), Q9F4F7 | Potency, µM, inactives show max response, negative = inhibition, usual class: inhibitors; active = well fitted inhibition curve with a large enough effect; inconclusive = small, poorly fitted or top-dose-only effect, or another doubt; inactive = no such curve, though single readings can be large or run the other way;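 also: the enzyme is Sfp with the accession as filed and its product quenches rhodamine fluorescence; potency is read from the fitted curve at half-maximal effect; 0% = enzyme reaction without inhibitor and -100% = no enzyme wells; top concentration of the series not given in the record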
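With Hepes-Na pH 7.6 buffer containing 10 mM MgCl2, Sfp (15 nM) modified BHQ-2-YbbR (12.5 uM) using rhodamine-CoA (5 uM). Two reads 30 minutes apart at 525/598 nm yielded each well's rate.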
D2 agonist: Beta-Arrestin HTS for Positive Allosteric Modulators of the Human D2 Dopamine Receptor: Agonists; DiscoveRx PathHunter D2 beta-arrestin, luminescence, 90 min; 100% = 57 uM dopamine signal; 0.084% of 360,000 active; D(2) dopamine receptor (Homo sapiens), P14416; activation, % (test concentration not listed); in the data active = activation above about 40%; inconclusive = about 15% to 40%; inactive = below about 15%; also: compound concentration not given in the record; the text of the record calls up to 30% inactive
Target sequence (P14416 whole entry, looked up): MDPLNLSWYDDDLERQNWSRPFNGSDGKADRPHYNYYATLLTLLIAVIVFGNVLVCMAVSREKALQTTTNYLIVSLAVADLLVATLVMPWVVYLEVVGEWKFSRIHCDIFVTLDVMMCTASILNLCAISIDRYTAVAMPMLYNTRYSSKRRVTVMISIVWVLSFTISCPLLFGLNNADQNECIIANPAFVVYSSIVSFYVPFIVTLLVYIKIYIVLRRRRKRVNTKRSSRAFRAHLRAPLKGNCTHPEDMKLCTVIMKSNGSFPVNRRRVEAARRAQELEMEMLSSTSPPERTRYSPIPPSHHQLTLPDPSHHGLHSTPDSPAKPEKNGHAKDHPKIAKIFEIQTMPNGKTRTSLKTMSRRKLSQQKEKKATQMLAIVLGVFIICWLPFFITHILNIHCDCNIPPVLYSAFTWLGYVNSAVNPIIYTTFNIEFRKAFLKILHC
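DiscoveRx PathHunter D2 beta-arrestin cells (2,100/well) attached overnight, then compound-stimulated 90 min at 37 C in HBSS/10 mM HEPES/0.1% Tween-20 buffer; beta-galactosidase complementation read by luminescence after 1 h at ambient temperature. Dopamine 57 uM final (EC100) as control.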
Numbers without * were called inactive; ? = inconclusive; / = no result given; [ ] = dose if it differs, or a comment.

SMILES	gsp antagonist	Menin MLL FP FL	gsp agonist	ClpP mod	PINK1 expr mod	Sfp inh	D2 agonist
COCCN(C(=O)Cc1cccs1)C(C(=O)NCc1ccc(OC)cc1)c1ccccc1 (stereo not drawn)	-9.4%	2.5	-19.7%	1.3%	/	-5.4%	-0.6
CCC(C)Sc1nc2ccccc2n1CC(=O)O (stereo not drawn)	-4.9%	2.2	-0.6%	0.2%	2.5%[38.3 µM]	-1.3%	0.4
O=C(Cn1cnc2ccccc2c1=O)Nc1ccc2c(c1)OCCO2	5.3%	1.6	-21.2%	0.1%	-4.0%	4.2%	-1.6
CCOC(=O)C(CCCOc1ccc(C)cc1)C(=O)OCC	-6.2%	2.7	3.3%	0.9%	1.0%	9.4%	-4.1
CN(C)CCCNC(=O)C1(O)c2cc(Br)ccc2NC(=O)N1c1ccc(Cl)cc1 (stereo not drawn)	11.8%	-4.3	?	/	0.3%	23.2%	-1.5
C[C@@H]1CN([C@@H](C)CO)C(=O)c2c(c3ccccc3n2C)-c2ccccc2CO[C@H]1CN(C)C(=O)[C@H](C)c1ccccc1	/	/	-3.9%	-10.3%	4.3%	/	-3.7
CC(C)CCN1C(=O)c2ccc(C(=O)OCC(=O)N(CC(C)C)C3CCS(=O)(=O)C3)cc2C1=O (stereo not drawn)	-19.7%	/	1.9%	1.2%	1.6%	/	-0.4
O=c1sc2ccccc2n1CCOc1ccccc1	-5.7%	0.0	-0.1%	-0.9%	1.7%	8.0%	0.6
CC(NCc1ccc([N+](=O)[O-])cc1)C1COc2ccccc2O1 (stereo not drawn)	14.2%	-11.5	-3.3%	/	-1.0%	-16.9%	0.0
O=C(c1cc(Cl)ccc1Cl)N1CCc2ccccc21	-13.7%	0.3	16.6%	/	4.5%	21.5%	2.8
CC(C)(C)NC(=O)C(OC(=O)Cn1nnc(-c2ccc(F)cc2)n1)c1ccncc1 (stereo not drawn)	2.0%	0.4	-1.0%	1.3%	?	10.3%	-0.2
CCN1C(=O)c2ccc(C(=O)Nc3cccc(C(=O)O)c3)cc2C1=O	7.4%	2.2	16.3%[15.4 µM]	1.2%	-0.6%	20.1%	-3.0
CC(=O)Nc1ccc(S(=O)(=O)N2CCCC2C(=O)O)cc1 (stereo not drawn)	5.0%	8.1	1.9%	1.2%	2.9%[38.3 µM]	11.1%	-1.1
Cc1ccc(S(=O)(=O)/N=C2\C=C(NS(=O)(=O)c3ccccc3)C(=O)c3ccccc32)cc1	-22.4%	/	5.1%[15.4 µM]	/	0.1%	/	-2.8
CCOC(=O)Cc1cc(=O)n2[nH]c(C)c(-c3ccccc3)c2n1	-8.1%	4.9	0.0%	?	0.8%	4.0%	-4.5
COc1cccc(C(=O)OCCCN(C)C)c1	12.7%	6.0	-3.5%	-23.9%	-0.6%	25.7%	-1.2
CCS(=O)(=O)N1N=C(c2cccc(NS(C)(=O)=O)c2)CC1c1ccc(C)cc1 (stereo not drawn)	-13.2%	?	-4.6%[15.4 µM]	/	?	-0.4%	0.1
Cc1cc(=O)n2ncnc2n1COCCO	-11.3%	1.0	-40.5%[inhibitor]	-8.3%	0.2%	8.2%	11.1
O=C(CC(c1ccccc1O)N1CCCCC1)N1CCCCC1 (stereo not drawn)	6.6%	-1.4	?	-0.1%	/	7.6%	2.0
O=C(Oc1ccc2c(c1)OCO2)c1ccc(Br)c(S(=O)(=O)N2CCOCC2)c1	-25.8%	1.0	0.1%	-0.5%	11.2µM*	-8.4%	-1.1
O=C1NC(=Nc2ccccc2)S/C1=C/c1cccnc1	-20.8%	8.4	2.0%[15.4 µM]	-0.8%	-1.4%	11.4%	-1.4
Cc1cc(NC(=O)c2cc(-c3ccccc3)on2)n(-c2ccccc2)n1	2.3%	0.2	-5.2%	22.2%	4.4%[38.3 µM]	-5.6%	-2.8
Cc1[nH]c(=O)[nH]c(=O)c1S(=O)(=O)Nc1ccc(F)c(Cl)c1	1.4%	0.3	-2.6%	0.4%	-3.0%	8.6%	3.4
NCC12CC3CC(CC(O)(C3)C1)C2	0.6%	2.1	9.2%	0.2%	/	10.7%	-1.7
O=C(CCNC(=O)C1CCN(S(=O)(=O)c2ccccc2)CC1)NC1CC1	16.9%	/	?	-0.4%	-1.1%	5.6%	0.1
O=C(N/C(=C/c1ccccc1)C(=O)N1CCCCC1)c1ccc(Br)o1	-16.3%	/	-44.0%[inhibitor]	-3.9%	-1.5%	-4.2%	-3.6
N#C/C(=N\Nc1ccc(F)cc1)C(=N)N1CCCCCC1	-5.1%	3.5	-5.2%	1.2%	1.1%	10.5%	-6.1
Cc1ccccc1NC(=O)CN1C(=S)NC(C)(C)CC1C (stereo not drawn)	9.1%	2.7	14.0%[15.4 µM]	1.1%	1.3%	-2.7%	-3.5
COC(=O)CSc1nc2cc3c(cc2cc1C#N)OCO3	3.4%	1.6	?	?	3.8%	29.9%	-0.3
COC(=O)c1ccc(S(=O)(=O)NCc2cccc(OC)c2)n1C	6.3%	-0.1	-81.2%[inhibitor]	0.8%	0.8%	22.7%	0.0
COc1ccc(S(=O)(=O)N2CCC(C(=O)N3CCc4ccccc4C3)CC2)cc1C	?	-0.7	-2.2%	-0.7%	1.0%[38.3 µM]	-4.0%	-1.4
CCOc1ccc2[nH]c(=O)c(CN(CCOC)C(=O)N3CCOCC3)cc2c1	5.2%	0.5	?	28.2µM*	1.0%	12.6%	-0.9
Nc1nnc(SCC(=O)c2ccc3ccccc3c2)s1	-11.5%	14.3	-21.9%	-1.1%	0.3%	-0.6%	-0.2
CC(C)C(=O)N=c1sc2cc(F)cc(F)c2n1C	7.9%	2.3	2.2%	-2.8%	-1.5%	0.0%	-6.7
NC(=O)CN(Cc1ccccc1)S(=O)(=O)c1ccc2c(c1)OCCO2	1.2%	-5.6	-0.1%	/	-2.9%	-1.9%	-1.9
O=C(OC1CCCCC1=O)c1cccc(S(=O)(=O)N2CCCCC2)c1 (stereo not drawn)	-4.8%	/	16.5%[15.4 µM]	-2.8%	-0.9%	/	-3.6
CC(C)c1ccccc1-n1c(SCC(=O)N2CCN(c3ccccc3)CC2)nnc1-c1cccnc1	-15.6%	8.7	-14.1%	1.0%	2.6%	-1.3%	-2.3
O=C(CCSc1nnc(-c2ccccc2)o1)N1CCOCC1	10.1%	0.9	?	-8.3%	0.1%	4.3%	2.4
Cc1ccc2c(c1)CCCN2C(=O)CCc1nc2ccccc2c(=O)[nH]1	1.8%	/	-149.0%[inhibitor]	2.0%	4.1%	/	-2.7
Cc1[nH][nH]c(=O)c1N=Nc1ccc(Br)c(Cl)c1	-14.1%	/	7.6%	/	1.3%	/	-4.9
Cc1ccc(C)c(NC(=O)C2(C)CC3c4ccccc4C2c2ccccc23)c1 (stereo not drawn)	10.2%	-1.4	37.5%	-0.1%	6.7%	4.7%	-3.5
Cc1ccoc1C(=O)Nc1ccc(CC(=O)O)cc1	1.4%	-1.1	?	0.8%	34.6%[38.3 µM]	3.9%	-2.9
Cc1ccc(-c2nc(CSCC(=O)NCCN3CCN(Cc4ccccc4)CC3)c(C)o2)cc1	-14.8%	2.0	10.0%	-20.1%	-0.3%	20.6%	0.6
O=C1/C(=C\c2ccc(O)cc2)SC(=S)N1c1cccnc1	-11.0%	?	17.2%	0.2%	10.8%	-28.2%	-6.2
CCCC1CCC(C(=O)n2nc(N)c3cc4ccc(OC)cc4nc32)CC1 (stereo not drawn)	4.0%	2.6	-19.2%	1.0%	0.9%	33.7%[activator]	-4.4
CCOC(=O)C1=C(C)NC(=O)NC1c1cccnc1 (stereo not drawn)	6.7%	0.7	5.3%	?	-2.2%	5.6%	1.6
CCO[C@H]1OC(C(=O)N2CCN(Cc3ccccc3)CC2)=C[C@@H](c2ccccc2)[C@@H]1CCCO	-3.7%	-1.8	/	0.7%	-0.3%	8.7%	1.9
CCCn1c(SCC(=O)Nc2cccnc2Cl)n[nH]c1=O	0.4%	/	-0.8%	1.4%	4.0%	/	3.2
COc1ccc(-c2ccc(CN3C(C(C)C)C(=O)N(Cc4cn(CC5CCCCC5)nn4)CCS3(=O)=O)cc2)cn1 (stereo not drawn)	/	/	4.3%	-7.0%	1.7%	/	-2.3
COc1ccccc1OCCCc1c(C)n[nH]c1C	-0.7%	-5.1	0.0%	-1.1%	0.7%[38.3 µM]	17.2%	-1.5
CNc1ccc(C(=O)OCC(=O)NC(=O)NC2CCCCC2)cc1[N+](=O)[O-]	?	/	27.4%	/	?	/	1.5
O=C(/C=C/c1ccccc1Br)c1ccc2c(c1)OCO2	-28.0%	-1.8	-6.2%[15.4 µM]	1.3%	-2.4%	-21.2%	-7.4
CCN1CCN(Cc2nc3c(c(=O)n(C)c(=O)n3C)n2C(C)C(C)=O)CC1 (stereo not drawn)	14.0%	0.9	?	-0.2%	-3.0%	11.5%	-2.5
O=C(NCc1ccc(Cl)cc1)c1cc(=O)nc2sc(-c3ccccc3)nn12	-8.8%	4.3	0.9%	-10.5%	13.6%[38.3 µM]	1.8%	1.2
Cc1cccc(-c2nc(CN3CCCC(C(=O)NC4CCCC4)C3)c(C)o2)c1 (stereo not drawn)	0.8%	0.0	23.8%	-4.5%	0.0%[38.3 µM]	2.4%	-2.7
CC1(C)CC(=O)C=C(Nc2ccc(O)c(C(=O)O)c2)C1	2.9%	-1.1	1.8%	-7.2%	0.4%	-0.8%	-0.6
CCCc1cc(=O)oc2c(C)c(OCC(=O)Nc3cccnc3)ccc12	-26.0%	/	12.9%	3.9%	3.5%	6.1%	0.0
CC1CCCC(C)N1C(=O)COC(=O)c1cc(=O)[nH]c2ccccc12 (stereo not drawn)	5.3%	/	11.8%	/	1.3%	/	-0.9
COc1cc(Cc2cc(OC)c(O)c(OC)c2)cc(OC)c1O	/	/	1.7%	0.3%	3.7%	/	-4.2

Assay outcomes deposited in PubChem BioAssay by National Center for Advancing Translational Sciences (NCATS).
